# Screening results from PubChem BioAssay.
# Ecoli rRNA inh – inhibits bacterial ribosomal RNA function over humanized ribosomes; E. coli WT GFP vs humanized-ribosome RFP mutants, fluorescence, 24 h; active compounds read low; DMSO median 0, no signal -100; 350,000 compounds, 1.6% hits; GFP signal change (wild-type ribosome), % (concentration not given with the values);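 active = significant combined selectivity score with lowered wild-type GFP, culture density cut under 30%, mutant RFP and density less affected; inactive = any of these conditions unmet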; also: one replicate is shown; some compounds called inactive have numbers as strong as hits
# AF4-AF9 inh – inhibitors of human MLL-AF4/AF9 interaction | inhibition, % at 10 µM | AlphaScreen, biotin-AF4 peptide binding to FLAG-AF9 | AID 651704 | 350,000 compounds, 0.47% hits;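 active = every replicate reaching a set inhibition limit, whatever the replicate mean, cut at about 25% in these data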;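 also: 0% = plate neutral control median and 100% = total signal loss; the record names both 10 and 1 µM as test concentration; the first replicate is given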
# Target sequence (P42568 whole entry, looked up): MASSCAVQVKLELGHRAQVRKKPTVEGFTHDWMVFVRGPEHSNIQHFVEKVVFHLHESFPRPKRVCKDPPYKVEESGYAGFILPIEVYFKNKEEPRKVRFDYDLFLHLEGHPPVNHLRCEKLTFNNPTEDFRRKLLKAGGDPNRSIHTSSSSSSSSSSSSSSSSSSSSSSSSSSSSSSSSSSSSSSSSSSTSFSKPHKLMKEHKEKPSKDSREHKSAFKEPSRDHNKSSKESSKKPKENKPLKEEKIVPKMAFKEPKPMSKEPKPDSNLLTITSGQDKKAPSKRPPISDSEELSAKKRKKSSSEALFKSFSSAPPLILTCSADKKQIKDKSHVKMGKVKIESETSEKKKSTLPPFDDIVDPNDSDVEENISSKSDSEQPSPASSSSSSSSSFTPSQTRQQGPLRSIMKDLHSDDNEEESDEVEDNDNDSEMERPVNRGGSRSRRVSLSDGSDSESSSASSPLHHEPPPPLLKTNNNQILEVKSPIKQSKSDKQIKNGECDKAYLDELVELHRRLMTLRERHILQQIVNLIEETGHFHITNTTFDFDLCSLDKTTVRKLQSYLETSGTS
# Ecoli rRNA inh OD600 – second read-out of Ecoli rRNA inh, no call of its own (marks repeat the call); OD600 change, %; measured here: OD600 growth;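 optical density of the mix in the first replicate; 0 = DMSO median and -100 = no signal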
# Ecoli rRNA inh RFP – second read-out of Ecoli rRNA inh, no call of its own (marks repeat the call); RFP signal change, %; measured here: RFP humanized mutant strains;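 first replicate; 0 = DMSO median and -100 = no signal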
# Active calls of the source: *; & = joins results of further samples. A portion of the library; the hit share may differ from the screen's.
SMILES,Ecoli rRNA inh,Ecoli rRNA inh OD600,Ecoli rRNA inh RFP,AF4-AF9 inh
CCc1sc(N2[C@H](C#N)[C@H](c3ccccc3-c3cccc(F)c3)[C@H]2CO)nc1C,-4,-16,-0.6,2.1
O=C([C@H]1[C@H](CO)[C@H]2Cn3c(ccc(-c4cncnc4)c3=O)[C@H]2N1C(=O)C1CCC1)N1CCCCC1,-4,9,-4.0,-5.2
COc1ccc(C#Cc2ccc([C@@H]3[C@@H](CO)N4C(=O)CN(C(=O)c5ccncc5)C[C@H]34)cc2)cc1,6,8,-0.4,-0.9
C/C=C/c1ccc([C@H]2[C@@H](CO)N3C(=O)CN(C(=O)c4ccncc4)C[C@@H]23)cc1,-1,11,-1.9,-1.7
C[C@H](CO)N1C[C@H](C)[C@H](CN(C)S(C)(=O)=O)Oc2ccc(NC(=O)Cc3cn(C)c4ccccc34)cc2C1=O,1,-1,1.6,-4.6
C/C=C/c1ccc([C@@H]2[C@@H](CO)N(C(=O)C3CCC3)C23CN(C(=O)NC(C)C)C3)cc1,-1,9,1.7,-3.4
O=C(C1CC1)N1C[C@@H]2N[C@H](C1)C2c1ccc(-c2ccccc2F)cc1 (some centres not stated),-4&-2,0&2,5.2&2.4,-14&-7.9
CCC(=O)N1CC(=O)N2[C@H](CO)[C@@H](c3ccc(-c4ccncc4)cc3)[C@H]2C1,1,-3,0.9,3.0
C/C=C/c1ccc([C@H]2[C@H](CO)N3C(=O)CN(C(=O)c4ccc(F)cc4)C[C@@H]23)cc1,0,-6,-4.5,-0.3
COC(=O)C[C@@H]1CC[C@H]2[C@H](COc3ccc(NC(=O)c4ccc(OC)cc4)cc3C(=O)N2C)O1,-7,4,0.0,0.6
C[C@H](CO)N1C[C@H](C)[C@@H](CN(C)Cc2ccc(C(F)(F)F)cc2)OCCCC[C@H](C)Oc2ccc(NS(=O)(=O)c3ccc(F)cc3)cc2C1=O,-2,-21,4.4,1.3
Cn1cnc(S(=O)(=O)N2[C@@H]3CNC[C@H]2C3c2ccc(-c3ccncc3)cc2)c1 (some centres not stated),9&6,16&8,0.5&-2.1,-2.5&-5.0
Cc1ccc(-c2ccc([C@H]3[C@H]4CN(C(=O)c5ccncc5)CC(=O)N4[C@H]3CO)cc2)cc1,2,-11,-4.0,0.3
C[C@@H]1CCCCO[C@@H](CN(C)S(=O)(=O)c2ccc(F)cc2)[C@@H](C)CN([C@H](C)CO)C(=O)c2cc(NC(=O)C3CCCCC3)ccc2O1,-1,-1,-3.0,-3.8
CO[C@@H]1CN(C)C(=O)c2ccc(NC(=O)C3CC3)cc2OC[C@@H](C)N(C(C)=O)C[C@H]1C,3,1,-1.6,-2.7
O=C(C1CCC1)N1CC2(C1)[C@H](c1ccccc1)[C@@H](CO)N2Cc1cncnc1,1,7,-1.0,-1.0
CN1c2ccc(C3=CCCCC3)cc2[C@@H]2[C@@H](CCN2C(=O)C2CCC2)[C@H]1CO,-16,-40,21,22
COC(=O)[C@@H]1[C@@H](CO)[C@@H]2Cn3c(ccc(-c4ccncc4)c3=O)[C@@H]2N1CC1CCCC1,-4,-5,0.9,-2.0
C/C=C/c1ccc([C@H]2[C@@H](CO)N(S(=O)(=O)CC)[C@@H]2CN(C)C(=O)CC)cc1,0,-2,0.1,0.3
N#C[C@H]1[C@@H](c2ccc(C3=CCCC3)cc2)[C@@H](CO)N1C(=O)NC1CCCCC1,-2,2,0.2,-3.5
C[C@H](NC(=O)C[C@@H]1C[C@@H]2c3cc(NC(=O)C4CCC4)ccc3O[C@@H]2[C@H](CO)O1)c1ccccc1,-2,-1,-2.4,-0.6
O=C(C1CCCC1)N1CC(=O)N2[C@@H](CO)[C@H](c3ccc(C#Cc4cccc(F)c4)cc3)[C@@H]2C1,-36,-55,15,-15
O=C(O)[C@H]1[C@H](CO)[C@H]2Cn3c(ccc(-c4cccc(F)c4)c3=O)[C@H]2N1C(=O)c1ccccn1,4,7,-0.7,-0.7
CC(=O)N1[C@H](CO)[C@H](c2ccc(C#CC3CCCCC3)cc2)[C@H]1CNCC(C)C,4,-5,10,7.0
CO[C@H]1CN(C)C(=O)c2ccc(NS(C)(=O)=O)cc2OC[C@@H](C)N(CCC(F)(F)F)C[C@H]1C,1,3,0.8,1.0

# Continued.
SMILES,Ecoli rRNA inh,Ecoli rRNA inh OD600,Ecoli rRNA inh RFP,AF4-AF9 inh
COCC(=O)N1CC2(C1)CN(Cc1cccc(OC)c1)[C@@H](CO)c1[nH]c3cc(OC)ccc3c12,0,-4,0.0,2.6
C[C@H]1CN([C@@H](C)CO)C(=O)Cc2cc(NC(=O)c3ccncc3)ccc2O[C@H]1CN(C)S(C)(=O)=O,3,11,-2.8,-4.6
CCC(=O)N1[C@H](C(=O)N[C@@H](C)c2ccccc2)[C@@H](CO)[C@@H]2Cn3c(cccc3=O)[C@@H]21,4,5,-4.5,-18
O=C(C1CCOCC1)N1CC(=O)N2[C@@H](CO)[C@@H](c3ccc(C#CC4CCCC4)cc3)[C@@H]2C1,-2,-5,0.5,-0.3
CCNC(=O)C[C@H]1CC[C@H]2[C@H](COc3ccc(NC(=O)Nc4ccc(F)cc4)cc3C(=O)N2C)O1,4,6,2.3,0.0
N#C[C@@H]1[C@@H](c2ccccc2-c2ccccc2F)[C@@H](CO)N1C(=O)c1ccccn1,-2,-6,4.5,-1.1
C[C@@H]1CN([C@@H](C)CO)C(=O)c2cc(NS(=O)(=O)c3ccc(F)cc3)ccc2O[C@@H](C)CCCCO[C@@H]1CN(C)Cc1ccccc1,-7,-48,28,5.5
CCCN1[C@@H]2c3ccc(-c4cccnc4)c(=O)n3C[C@@H]2[C@@H](CO)[C@@H]1C(=O)OC,4,6,-0.1,-5.9
O=C(O)C[C@@H]1C[C@@H]2c3cc(NS(=O)(=O)c4ccccc4)ccc3O[C@@H]2[C@H](CO)O1,3,13,-2.3,-2.4
CO[C@@H]1CN(C)C(=O)c2ccc(NC(C)=O)cc2OC[C@H](C)N(C(=O)Cc2cccnc2)C[C@@H]1C,-1,3,-1.2,-3.2
COc1cccc(-c2ccc([C@@H]3[C@@H](CO)N4C(=O)CN(C(=O)c5ccncc5)C[C@H]34)cc2)c1,1,12,-3.8,-0.9
CCS(=O)(=O)Nc1ccc2c(c1)C(=O)N(C)[C@H]1CC[C@@H](CC(=O)N[C@@H]3CCN(Cc4ccccc4)C3)O[C@@H]1CO2,2,1,-1.5,-3.0
CC=Cc1ccc2n(c1=O)C[C@H]1[C@H](CO)[C@@H](C(=O)Nc3ccc(-c4ccccc4)cc3)[C@@H]2N1C(C)=O (mixture of isomers),-3,-38,19,15
COc1cccc(-c2ccc([C@H]3[C@@H](CO)N4C(=O)CN(C(=O)C5CCOCC5)C[C@@H]34)cc2)c1,2,11,0.4,1.2
O=C(C1CCOCC1)N1CC2(C1)[C@@H](c1ccccc1)[C@@H](CO)N2CCC(F)(F)F,3,4,-3.0,-2.1
Cn1cc(C=CC(=O)O)c2nccnc21,7,21,4.5,12
CO[C@H]1CN(C)C(=O)c2cc(NS(C)(=O)=O)ccc2OC[C@H](C)NC[C@H]1C,0,3,-1.5,-5.3
O=C(C1CCCC1)N1CC2(C1)[C@@H](c1ccccc1)[C@@H](CO)N2CC1CC1,1,13,-2.6,-6.4
CN1c2ccc(-c3cccc(C#N)c3)cc2[C@H]2[C@H](CCN2C(=O)C2CCCC2)[C@H]1CO,-42,-57,12,8.3
N#C[C@H]1[C@H](c2ccccc2C2=CCCC2)[C@@H](CO)N1C(=O)NC1CCCC1,-46,-72,-6.8,1.4
CCCNC(=O)[C@H]1[C@H](CO)[C@H]2Cn3c(ccc(C4=CCCCC4)c3=O)[C@@H]1N2C(=O)CC,0,4,-1.3,-0.1
Cc1noc(C)c1NC(=O)Nc1ccc2c(c1)C(=O)N([C@H](C)CO)C[C@@H](C)[C@@H](CN(C)S(=O)(=O)c1ccc(F)cc1)OCCCC[C@H](C)O2,-3,-6,2.1,-0.3
COc1ccc(NC(=O)N2CC(=O)N3[C@@H](CO)[C@H](c4ccc(C5=CCCC5)cc4)[C@@H]3C2)cc1,0,-17,6.8,3.3
C[C@H](CO)N1C[C@H](C)[C@@H](CN(C)CC2CCCCC2)OCc2ccccc2-c2c(n(C)c3ccccc23)C1=O,1,-14,9.3,15
O=C(C1CC1)N1CC(=O)N2[C@H](CO)[C@@H](c3ccc(Br)cc3)[C@H]2C1,0,6,-3.6,-1.5

# Random excerpt: 2 entries already listed, in no set order.
SMILES,Ecoli rRNA inh,Ecoli rRNA inh OD600,Ecoli rRNA inh RFP,AF4-AF9 inh
C/C=C/c1ccc([C@@H]2[C@@H](CO)N(C(=O)C3CCC3)C23CN(C(=O)NC(C)C)C3)cc1,-1,9,1.7,-3.4
CN1c2ccc(C3=CCCCC3)cc2[C@@H]2[C@@H](CCN2C(=O)C2CCC2)[C@H]1CO,-16,-40,21,22

# 9 entries from above in another layout:
Ecoli rRNA inh	Ecoli rRNA inh OD600	Ecoli rRNA inh RFP	AF4-AF9 inh	compound
-4	-16	-0.6	2.1	CCc1sc(N2[C@H](C#N)[C@H](c3ccccc3-c3cccc(F)c3)[C@H]2CO)nc1C
-4	9	-4.0	-5.2	O=C([C@H]1[C@H](CO)[C@H]2Cn3c(ccc(-c4cncnc4)c3=O)[C@H]2N1C(=O)C1CCC1)N1CCCCC1
6	8	-0.4	-0.9	COc1ccc(C#Cc2ccc([C@@H]3[C@@H](CO)N4C(=O)CN(C(=O)c5ccncc5)C[C@H]34)cc2)cc1
-1	11	-1.9	-1.7	C/C=C/c1ccc([C@H]2[C@@H](CO)N3C(=O)CN(C(=O)c4ccncc4)C[C@@H]23)cc1
1	-1	1.6	-4.6	C[C@H](CO)N1C[C@H](C)[C@H](CN(C)S(C)(=O)=O)Oc2ccc(NC(=O)Cc3cn(C)c4ccccc34)cc2C1=O
-1	9	1.7	-3.4	C/C=C/c1ccc([C@@H]2[C@@H](CO)N(C(=O)C3CCC3)C23CN(C(=O)NC(C)C)C3)cc1
-4&-2	0&2	5.2&2.4	-14&-7.9	O=C(C1CC1)N1C[C@@H]2N[C@H](C1)C2c1ccc(-c2ccccc2F)cc1 (some centres not stated)
1	-3	0.9	3.0	CCC(=O)N1CC(=O)N2[C@H](CO)[C@@H](c3ccc(-c4ccncc4)cc3)[C@H]2C1
0	-6	-4.5	-0.3	C/C=C/c1ccc([C@H]2[C@H](CO)N3C(=O)CN(C(=O)c4ccc(F)cc4)C[C@@H]23)cc1

# New compounds follow
SMILES,Ecoli rRNA inh,Ecoli rRNA inh OD600,Ecoli rRNA inh RFP,AF4-AF9 inh
CC(=O)NC[C@@H]1[C@@H](c2ccc(-c3ccccc3F)cc2)[C@@H](CO)N1CCC(F)(F)F,-3,-7,4.4,1.0
N#C[C@@H]1[C@H](c2ccc(C3=CCCCC3)cc2)[C@@H](CO)N1C(=O)NC1CCCC1,1,0,1.0,4.5
CCC(=O)N[C@H]1CC[C@H](CC(=O)NCC2CC2)O[C@@H]1CO,2,-3,1.4,-2.7
CC1CCN(CC(=O)Nc2ccc3c(c2)OCO3)CC1,3,3,-0.8,-0.8
COc1ccc(NC(=O)Nc2cccc3c2O[C@@H](CN(C)Cc2ccc(C(=O)O)cc2)[C@H](C)CN([C@H](C)CO)C3=O)cc1,3,-3,-1.4,-2.3
O=C(c1ccccc1)N1CC(=O)N2[C@@H](CO)[C@H](c3ccc(C#CCC4CCCC4)cc3)[C@@H]2C1,0,4,16,1.7
O=C(Nc1ccc(F)cc1)N1C[C@@H]2N[C@H](C1)C2c1ccc(-c2ccccc2F)cc1 (some centres not stated),-58&-16,-80&-10,-11&0.6,2.6&1.5
C[C@@H]1CCCCO[C@H](CN(C)C(=O)Nc2ccccc2)[C@@H](C)CN([C@@H](C)CO)C(=O)c2cc(NC(=O)CCCN(C)C)ccc2O1,2,-4,1.7,2.4
C[C@@H]1CN([C@H](C)CO)C(=O)c2cccc(NC(=O)c3cnccn3)c2O[C@@H]1CN(C)Cc1ccc(C(F)(F)F)cc1,-8,-17,0.3,-0.3
COC(=O)C[C@H]1CC[C@H]2[C@@H](COc3ccc(NC(=O)c4ccc(F)cc4)cc3C(=O)N2C)O1,2,2,-2.3,-1.6
COc1ccc2c3c([nH]c2c1)[C@H](CO)N(C(=O)c1cnccn1)CC31CN(S(=O)(=O)c2ccccc2)C1,-4,-15,-2.0,8.6
Cc1cccc(C)c1-c1ccc(CN2C(CC(C)C)C(=O)N(Cc3cn(CC4CCCCC4)nn3)CCS2(=O)=O)cc1 (configuration not stated),7,17,-1.7,0.5
C[C@@H]1CN([C@H](C)CO)C(=O)Cc2cc(NC(=O)NC3CCCCC3)ccc2O[C@H]1CN(C)CC1CCCCC1,-37,-58,8.3,-3.3
O=C(C[C@@H]1C=C[C@H](NC(=O)Cc2ccccn2)[C@H](CO)O1)NCCc1ccccc1,-1,-2,-0.9,-1.7
O=C(C[C@H]1CC[C@H](NC(=O)C2CCOCC2)[C@H](CO)O1)NCC1CC1,1,8,-3.0,-2.8
C[C@@H]1CN([C@H](C)CO)C(=O)c2cc(NC(=O)Nc3ccc(C(F)(F)F)cc3)ccc2O[C@@H](C)CCCCO[C@H]1CN(C)S(=O)(=O)c1ccc(F)cc1,5,11,-0.5,-3.6
CCC(=O)N1CC(=O)N2[C@@H](CO)[C@@H](c3ccc(C#CC4CCCC4)cc3)[C@@H]2C1,-4,-8,-0.4,-1.8
CCOc1ncccc1C(=O)Nc1ccc(OC)c(S(=O)(=O)N2CCOCC2)c1,3,1,-3.4,0.1
O=C(Nc1ccc(C(F)(F)F)cc1)Nc1ccc2c(c1)[C@H]1C[C@@H](CC(=O)N3CCc4ccccc4C3)O[C@H](CO)[C@H]1O2,-5,-24,3.8,-8.7
